Ecoli rRNA inh – reduced GFP signal of wild-type E. coli, primary screen, bacterial rRNA inhibitor project, GFP/RFP fluorescence, OD600, single point; GFP signal change (wild-type ribosome), % (no concentration beside the values); hit rate 1.6% among 350,000; E. coli WT GFP vs humanized-ribosome RFP mutants, 24 h; active compounds read low; DMSO median 0, no signal -100;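 active = significant combined selectivity score with lowered wild-type GFP, culture density cut under 30%, mutant RFP and density less affected; inactive = any of these conditions unmet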; also: one replicate is shown; some compounds called inactive have numbers as strong as hits
MLL AF4-AF9 inh – inhibitors of AF4 peptide binding to AF9, primary screen, biochemical, AlphaScreen, biotin-AF4 peptide, FLAG-AF9, single point. Protein AF-9 (Homo sapiens), P42568. inhibition, % at 10 µM. hit rate 0.47% among 350,000;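 active = every replicate reaching a set inhibition limit, whatever the replicate mean, cut at about 25% in these data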;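 also: 0% = plate neutral control median and 100% = total signal loss; the record names both 10 and 1 µM as test concentration; the first replicate is given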
Target sequence (P42568 whole entry, looked up): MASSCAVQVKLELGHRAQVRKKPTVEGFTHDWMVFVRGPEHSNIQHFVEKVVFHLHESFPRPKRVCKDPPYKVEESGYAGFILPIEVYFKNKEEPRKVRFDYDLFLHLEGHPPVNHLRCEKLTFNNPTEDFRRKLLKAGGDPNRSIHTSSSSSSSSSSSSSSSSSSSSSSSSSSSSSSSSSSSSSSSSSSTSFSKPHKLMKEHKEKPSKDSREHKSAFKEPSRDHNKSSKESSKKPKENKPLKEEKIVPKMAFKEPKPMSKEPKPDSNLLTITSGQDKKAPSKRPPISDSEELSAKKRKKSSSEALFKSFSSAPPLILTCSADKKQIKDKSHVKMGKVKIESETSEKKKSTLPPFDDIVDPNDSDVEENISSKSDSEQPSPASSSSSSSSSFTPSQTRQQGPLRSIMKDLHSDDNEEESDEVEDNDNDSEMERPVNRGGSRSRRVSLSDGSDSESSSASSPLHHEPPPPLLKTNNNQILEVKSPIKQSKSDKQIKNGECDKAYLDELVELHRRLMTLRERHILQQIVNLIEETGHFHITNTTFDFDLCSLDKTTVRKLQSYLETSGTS
Ecoli rRNA inh OD600 – recorded beside Ecoli rRNA inh, whose call it bears; OD600 change, %; measured here: OD600 growth;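 optical density of the mix in the first replicate; 0 = DMSO median and -100 = no signal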
Ecoli rRNA inh RFP – further read-out of Ecoli rRNA inh, marked with its call; RFP signal change, %; measured here: RFP humanized mutant strains;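 first replicate; 0 = DMSO median and -100 = no signal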
* hit, by the source's call.

SMILES | Ecoli rRNA inh | Ecoli rRNA inh OD600 | Ecoli rRNA inh RFP | MLL AF4-AF9 inh
CCCC#Cc1cnc2c(c1)C(=O)N([C@@H](C)CO)C[C@@H](C)[C@@H](CN(C)C(=O)c1cccc(F)c1)O2 | 6 | 0 | 2.1 | -3.6
C[C@H]1CN([C@@H](C)CO)C(=O)Cc2cc(NC(=O)Cc3ccccc3)ccc2O[C@@H]1CN(C)C(=O)Nc1cccc2ccccc12 | 7 | 8 | 3.8 | 0.0
COCC(=O)N[C@H]1CC[C@H](CC(=O)NCc2ccc(Cl)cc2)O[C@@H]1CO | -1 | 0 | -1.1 | -1.2
O=C(NCC1CC1)[C@@H]1[C@@H](CO)[C@@H]2Cn3c(ccc(C4=CCCC4)c3=O)[C@@H]2N1C(=O)C1CC1 | 4 | 9 | 3.6 | -2.5
COc1ccc2c3c([nH]c2c1)[C@H](CO)N(CC1CC1)CC31CN(C(=O)c2cccc(F)c2)C1 | -6 | -2 | 3.5 | 0.5
C[C@@H]1CCCCO[C@H](CN(C)C(=O)NC2CCCCC2)[C@H](C)CN([C@@H](C)CO)C(=O)c2cc(NC(=O)Nc3cccc4ccccc34)ccc2O1 | 3 | 7 | -1.1 | -1.6
CCC(=O)N[C@H]1CC[C@@H](CC(=O)NCC2CCCCC2)O[C@@H]1CO | 6 | 12 | 1.4 | -0.3
COC(=O)[C@H]1[C@H](CO)[C@H]2Cn3c(cccc3=O)[C@H]2N1CC1CCCCC1 | 0 | -8 | 1.1 | -3.6
C[C@@H]1CN([C@@H](C)CO)C(=O)c2cccc(NS(=O)(=O)c3cn(C)cn3)c2O[C@H]1CN(C)C(=O)Nc1ccc2c(c1)OCO2 | 4 | 1 | -0.9 | -2.2
COC(=O)[C@]12CCCCC=C1N(Cc1cccc3ccccc13)C(=O)[C@H](CC(=O)N1CCCC1)C2 | -36 | -50 | -3.8 | 3.8

Overlap with the part before: 2 entries, followed by the next part.
SMILES | Ecoli rRNA inh | Ecoli rRNA inh OD600 | Ecoli rRNA inh RFP | MLL AF4-AF9 inh
C[C@@H]1CN([C@@H](C)CO)C(=O)c2cccc(NS(=O)(=O)c3cn(C)cn3)c2O[C@H]1CN(C)C(=O)Nc1ccc2c(c1)OCO2 | 4 | 1 | -0.9 | -2.2
COC(=O)[C@]12CCCCC=C1N(Cc1cccc3ccccc13)C(=O)[C@H](CC(=O)N1CCCC1)C2 | -36 | -50 | -3.8 | 3.8
CCCNC(=O)C[C@H]1CC[C@@H]2[C@H](COC[C@@H](O)CN2C(=O)C2CCOCC2)O1 | 2 | 6 | 30 | -2.6
O=C(c1ccc(CSc2ccc(Cl)cc2)o1)N1CCOCC1 | -12 | -19 | -3.7 | 3.7
COCC(=O)N1[C@H](CO)[C@@H](c2ccccc2)C12CN(C(=O)c1ccccc1)C2 | 5 | 6 | -0.4 | -1.8
CC(C)C#Cc1cnc2c(c1)C(=O)N([C@@H](C)CO)C[C@@H](C)[C@H](CN(C)C(=O)Nc1ccccc1F)O2 | 4 | 15 | -0.9 | -2.0
O=C(C[C@@H]1C[C@H]2c3cc(NS(=O)(=O)c4ccccc4)ccc3O[C@H]2[C@H](CO)O1)N1CCOCC1 | 3 | 5 | 0.6 | -1.1
CCC(=O)N1[C@H](CN(CC)C(=O)NC2CCCC2)[C@@H](c2ccccc2)[C@@H]1CO | 0 | 2 | 0.6 | -4.5
C[C@H]1CN([C@@H](C)CO)C(=O)c2cc(NS(=O)(=O)c3ccccc3)ccc2O[C@@H]1CN(C)C(=O)Nc1ccccc1 | -1 | 0 | -0.7 | -2.1
COc1cccc(NC(=O)N2CC3(C2)[C@@H](c2ccccc2)[C@@H](CO)N3C(=O)C2CCC2)c1 | -1 | 1 | 3.0 | -1.0
O=C(CCN1CCCCC1)NCC[C@H]1CC[C@@H](NC(=O)Cc2cccnc2)[C@@H](CO)O1 | 2 | 8 | 3.0 | 0.1
CO[C@@H]1CN(C)C(=O)c2cc(NC(=O)Nc3c(C)noc3C)ccc2OC[C@H](C)N(CC2CC2)C[C@H]1C | 0 | 3 | -3.2 | -0.5
C/C=C/c1ccc([C@H]2[C@@H](CO)N(CC3CCCC3)C23CN(C(=O)COC)C3)cc1 | -4 | -11 | 12 | 4.2
COc1ccc(S(=O)(=O)Nc2cccc3c2O[C@H](CN(C)CC2CCCCC2)[C@H](C)CN([C@@H](C)CO)C3=O)cc1 | 0 | -12 | 0.9 | 0.0
O=C(O)C[C@@H]1CC[C@H]2[C@@H](COC[C@H](O)CN2S(=O)(=O)c2ccc(F)cc2)O1 | 2 | 9 | -5.4 | -5.2
O=C(c1ccccn1)N1CC(=O)N2[C@H](C1)[C@H](c1ccc(C#CC3CCCC3)cc1)[C@@H]2CO | 1 | 1 | 0.2 | -2.1
COc1ccc(-c2ccc([C@H]3[C@H](CO)N4C(=O)CN(C(=O)Cc5ccccn5)C[C@@H]34)cc2)cc1 | -3 | -5 | 2.2 | -0.3
O=C(Nc1ccc(Cl)cc1)N1C[C@@H]2[C@H](c3ccccc31)[C@@H](CO)N2C(=O)c1cccnc1 | -26 | -28 | 3.6 | 0.1
COC(=O)[C@]12C[C@H](CC(=O)NCc3cccs3)C(=O)N(CCc3ccc(OC)c(OC)c3)C1=C[C@H](C(C)(C)C)O[C@@H]2C | 4 | 7 | 3.5 | 3.5
O=C(Nc1ccccc1F)N1CC(=O)N2[C@H](CO)[C@H](c3ccc(C#Cc4ccc(F)cc4)cc3)[C@H]2C1 | -37 | -67 | 6.9 | -0.1
CNC(=O)C[C@@H]1CC[C@H]2[C@@H](COC[C@@H](O)CN2C(=O)c2ccccn2)O1 | 3 | 14 | 2.5 | -4.3
CO[C@H](CN(C)S(=O)(=O)c1ccc(Cl)cc1)[C@@H](C)CN(C(=O)Nc1ccccc1F)[C@H](C)CO | -9 | -5 | -2.9 | -1.5
CC(C)(C)C(c1nc2ccccc2[nH]1)n1c(-c2ccco2)nc2ccccc21 (configuration not stated) | 8 | 10 | -1.4 | -1.6
C[C@H](O)C#Cc1cnc2c(c1)C(=O)N([C@H](C)CO)C[C@@H](C)[C@H](CN(C)CC1CCCCC1)O2 | 2 | 0 | 0.8 | -0.4
C[C@H]1CCCCO[C@H](CN(C)Cc2ccc(C(=O)O)cc2)[C@@H](C)CN([C@@H](C)CO)C(=O)c2cc(NC(=O)Nc3ccc(F)cc3)ccc2O1 | -2 | -4 | -2.0 | 0.0
COCCN1C(=O)c2ccccc2C1c1nc2ccccc2[nH]1 (configuration not stated) | 9 | 15 | 1.1 | -0.3
CCOC(=O)N1CCN(C(=O)C[C@H]2C[C@@]3(C(=O)OC)C(=C[C@H](C(C)(C)C)O[C@@H]3C)N(Cc3ccc4c(c3)OCO4)C2=O)CC1 | 4 | -8 | 6.8 | 3.2
COc1ccc(-c2cccc(-c3nc(C(=O)N(C)C)cc4c3[C@H](CCO)N([S@@](=O)C(C)(C)C)C4)c2)cc1 | 0 | 9 | 7.7 | -7.7
COc1ccc2c3c([nH]c2c1)[C@@H](CO)N(Cc1ccccc1OC)CC31CN(S(C)(=O)=O)C1 | -3 | 0 | 4.7 | -1.8
C[C@@H]1CN([C@@H](C)CO)C(=O)c2cc(NC(=O)CCCN(C)C)ccc2O[C@@H](C)CCCCO[C@@H]1CN(C)S(=O)(=O)c1cccs1 | 1 | -12 | -1.1 | -0.9
CCCc1c(-c2ccc(Cl)cc2)ncn1Cc1cccc(-c2ccccc2)c1 | -43 | -72 | 13 | 5.8
C[C@@H]1CN([C@H](C)CO)S(=O)(=O)c2ccc(C#Cc3ccccc3)cc2O[C@@H]1CN(C)C(=O)Cc1ccccn1 | -36 | -57 | 27 | 1.2

Full records, quoted from the list. Order of values: Ecoli rRNA inh, Ecoli rRNA inh OD600, Ecoli rRNA inh RFP, MLL AF4-AF9 inh
Shown for `CC(C)(C)C(c1nc2ccccc2[nH]1)n1c(-c2ccco2)nc2ccccc21` (configuration not stated) → 8, 10, -1.4, -1.6
Shown for `CCCc1c(-c2ccc(Cl)cc2)ncn1Cc1cccc(-c2ccccc2)c1` → -43, -72, 13, 5.8
Shown for `C[C@@H]1CN([C@H](C)CO)S(=O)(=O)c2ccc(C#Cc3ccccc3)cc2O[C@@H]1CN(C)C(=O)Cc1ccccn1` → -36, -57, 27, 1.2
Shown for `COc1ccc2c3c([nH]c2c1)[C@@H](CO)N(Cc1ccccc1OC)CC31CN(S(C)(=O)=O)C1` → -3, 0, 4.7, -1.8
Shown for `COc1ccc(-c2cccc(-c3nc(C(=O)N(C)C)cc4c3[C@H](CCO)N([S@@](=O)C(C)(C)C)C4)c2)cc1` → 0, 9, 7.7, -7.7

Back to the main list, starting two compounds before the break.
SMILES | Ecoli rRNA inh | Ecoli rRNA inh OD600 | Ecoli rRNA inh RFP | MLL AF4-AF9 inh
CCCc1c(-c2ccc(Cl)cc2)ncn1Cc1cccc(-c2ccccc2)c1 | -43 | -72 | 13 | 5.8
C[C@@H]1CN([C@H](C)CO)S(=O)(=O)c2ccc(C#Cc3ccccc3)cc2O[C@@H]1CN(C)C(=O)Cc1ccccn1 | -36 | -57 | 27 | 1.2
CC(C)NC(=O)Nc1ccc2c(c1)CC(=O)N([C@H](C)CO)C[C@H](C)[C@@H](CN(C)Cc1ccc3c(c1)OCO3)O2 | 1 | 0 | 1.2 | 5.4
CN(C)C(=O)c1ccc(-c2ccc([C@H]3[C@@H](C#N)N(C(=O)C4CCOCC4)[C@H]3CO)cc2)cc1 | 3 | 3 | -5.6 | 1.7
C[C@@H]1CN([C@@H](C)CO)C(=O)c2cc(NC(=O)c3ccncc3)ccc2O[C@@H](C)CCCCO[C@H]1CN(C)S(=O)(=O)c1cccs1 | -3 | -11 | -1.0 | -0.3
Cc1cc(C(=O)Nc2cccc3c2O[C@H](CN(C)S(=O)(=O)c2ccc(Cl)cc2)[C@H](C)CN([C@H](C)CO)C3=O)n(C)n1 | -22* | -17* | -3.8* | 0.5
C[C@H]1CN([C@@H](C)CO)C(=O)c2cc(NC(=O)c3ccncc3)ccc2O[C@@H]1CN(C)S(=O)(=O)c1ccc(Cl)cc1 | -3 | -3 | -1.4 | -2.0
C[C@H](O)C#Cc1ccc2c(c1)O[C@@H](CN(C)CC1CCCC1)[C@H](C)CN([C@@H](C)CO)S2(=O)=O | -4 | -13 | 1.1 | -13
CCCNC(=O)C[C@H]1CC[C@H]2[C@@H](COc3ccc(NC(=O)Nc4cccc(C)c4)cc3C(=O)N2C)O1 | -2 | -12 | -1.8 | 1.2
C[C@@H]1CN([C@@H](C)CO)C(=O)c2cc(-c3ccccc3F)cnc2O[C@@H]1CN(C)C(=O)C1CCCCC1 | -3 | -3 | 1.5 | -2.6
COc1ccc2c3c([nH]c2c1)[C@@H](CO)N(C(=O)CN(C)C)CC31CCN(C(=O)c2ccncc2)CC1 | 0 | 7 | -0.5 | -5.9
C[C@@H]1CCCCO[C@@H](CN(C)C(=O)Nc2ccc(F)cc2)[C@H](C)CN([C@@H](C)CO)C(=O)c2cc(NC(=O)Nc3ccc(C(F)(F)F)cc3)ccc2O1 | 4 | 14 | 0.3 | -11
CC(C)C#Cc1ccc2c(c1)O[C@H](CN(C)C(=O)c1ccncc1)[C@@H](C)CN([C@H](C)CO)S2(=O)=O | -2 | -3 | 0.5 | -0.5
C/C=C/c1ccc2c(c1)O[C@H](CN(C)C(=O)c1ccccn1)[C@@H](C)CN([C@H](C)CO)S2(=O)=O | 1 | 6 | -1.6 | 0.0
COc1cc(-c2cnc3c(NC=O)cc(-c4ccc(C)cc4)cn23)cc(OC)c1OC | 10 | -6 | -0.7 | 0.6
C[C@@H]1CN([C@@H](C)CO)C(=O)Cc2cc(NS(C)(=O)=O)ccc2O[C@@H]1CN(C)Cc1ccc(Oc2ccccc2)cc1 | -56 | -77 | -16 | 4.0
CC1(c2nc3ccccc3[nH]2)CCCC2=Nc3ccccc3CN21 (configuration not stated) | 2 | 1 | 8.6 | -0.3
CN(C)C(=O)c1cccc(-c2ccc3c(c2)[C@H]2[C@H](CCN2C(=O)c2ccccc2F)[C@@H](CO)N3)c1 | -5 | -2 | -5.2 | -1.0
C[C@H](CO)N1C[C@H](C)[C@H](CN(C)S(=O)(=O)c2ccccc2)Oc2ccc(NC(=O)C3CCCCC3)cc2C1=O | -1 | -17 | -0.3 | -4.6
COc1ccc(NC(=O)N(C)C[C@H]2Oc3ccc(NC(=O)Nc4cccc5ccccc45)cc3C(=O)N([C@@H](C)CO)C[C@H]2C)cc1 | 0 | -1 | -2.3 | 1.7
O=C(CCN1CCCCC1)NCC[C@@H]1CC[C@@H](NC(=O)c2ccc(F)cc2)[C@@H](CO)O1 | -1 | -1 | -1.3 | -2.0
COc1ccc(-c2ccc([C@H]3[C@H](CO)N4C(=O)CN(C(=O)C5CCOCC5)C[C@@H]34)cc2)cc1 | 9 | 24 | 0.6 | 0.9
C[C@H](CO)N1C[C@H](C)[C@@H](CN(C)C(=O)C2CCCCC2)Oc2ncc(/C=C/c3ccccc3)cc2C1=O | -7 | -41 | 26 | 17
O=C(c1[nH]c(C(F)(F)F)nc1-c1ccccc1)N1CCN(c2ncccn2)CC1 | -3 | 0 | 2.9 | -0.8
Cc1ccc(S(=O)(=O)N[C@H]2CC[C@H](CCn3cc(C(C)C)nn3)O[C@H]2CO)cc1 | -1 | 3 | -2.3 | -0.3
CC(C)CC#Cc1cnc2c(c1)C(=O)N([C@H](C)CO)C[C@H](C)[C@H](CN(C)S(C)(=O)=O)O2 | 0 | 3 | -1.3 | -12
CN(Cc1ccc2c(c1)CCCN2C)C(=O)[C@H]1O[C@@H](n2cnc3c(N)ncnc32)[C@H](O)[C@@H]1O | 3 | 0 | 1.1 | -4.0

These rows are one share of the data; count on the stated rates, not on these rows.
